KCNQ2 pot: KCNQ2 (rat) channel potentiation; CHO-K1 KCNQ2, FluxOR thallium flux fluorescence; stronger effect = higher value; 0.54% of 310,000 active; O88943; B-score at 10 µM;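 active = fluorescence ratio B-score at least 3 SD of library B-scores, with initial fluorescence B-score within 3 SD, cut at about 5.3 in these data; same plate scores as AID 2156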;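 note: B-score of peak minus minimum over baseline fluorescence ratio after K+ and Tl+ stimulus; positive B-score means potentiation of KCNQ2 with more thallium influx and brighter signal; only the inactives scoring about 0 or higher are listed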
Target sequence (O88943 whole entry, looked up): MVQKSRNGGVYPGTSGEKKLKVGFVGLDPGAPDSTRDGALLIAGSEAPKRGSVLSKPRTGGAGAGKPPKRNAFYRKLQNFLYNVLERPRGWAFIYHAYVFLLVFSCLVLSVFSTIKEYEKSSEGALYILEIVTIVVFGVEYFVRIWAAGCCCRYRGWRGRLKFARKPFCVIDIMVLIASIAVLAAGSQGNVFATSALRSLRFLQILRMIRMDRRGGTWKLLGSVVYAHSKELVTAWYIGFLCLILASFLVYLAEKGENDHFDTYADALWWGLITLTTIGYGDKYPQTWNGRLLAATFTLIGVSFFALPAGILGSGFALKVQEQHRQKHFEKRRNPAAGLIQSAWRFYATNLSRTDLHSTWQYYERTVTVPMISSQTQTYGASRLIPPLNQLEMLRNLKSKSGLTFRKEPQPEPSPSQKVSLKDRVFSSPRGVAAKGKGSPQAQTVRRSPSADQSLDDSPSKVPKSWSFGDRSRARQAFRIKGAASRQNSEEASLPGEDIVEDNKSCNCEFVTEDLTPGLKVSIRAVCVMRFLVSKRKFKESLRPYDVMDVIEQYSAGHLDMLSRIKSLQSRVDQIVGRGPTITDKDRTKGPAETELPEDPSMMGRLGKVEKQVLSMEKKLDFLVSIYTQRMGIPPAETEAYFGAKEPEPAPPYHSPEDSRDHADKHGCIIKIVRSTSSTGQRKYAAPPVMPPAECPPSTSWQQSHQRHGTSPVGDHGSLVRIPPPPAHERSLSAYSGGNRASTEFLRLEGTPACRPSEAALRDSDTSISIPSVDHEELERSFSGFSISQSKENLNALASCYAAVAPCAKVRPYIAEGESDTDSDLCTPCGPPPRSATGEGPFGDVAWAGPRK
KCNQ2 pot baseline: also measured in KCNQ2 pot; calls as there; B-score; compound at 10 µM; measured here: initial fluorescence intensity artifact check;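 brightness before thallium and not channel activity; 0 = typical well and far values either way flag optical interference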
The depositor's hits bear a star.

KCNQ2 pot | KCNQ2 pot baseline | SMILES
0.03 | 2.44 | CCCC(=O)NCC(c1cccs1)S(=O)(=O)c1ccc(Cl)cc1 (configuration not stated)
2.17 | -1.01 | CCOC(=O)C1CCCN(C(=O)CCNS(=O)(=O)c2cc(Br)cnc2N)C1 (configuration not stated)
0.37 | 2.06 | O=C(CNC(=O)c1ccccc1F)NNC(=O)c1ccccc1O
0.04 | 0.98 | Cc1c(C)c2ccc(OC(C)C(=O)N3CC[C@@]4(O)CCCC[C@H]4C3)c(C)c2oc1=O (some centres not stated)
1.06 | -0.22 | Cc1ccc(OCC(=O)N/N=C/c2ccc([N+](=O)[O-])o2)cc1
0.17 | 0.61 | CCOC(=O)CNC(=O)CSc1nnc(-c2ccco2)n1N
1.7 | 0.29 | C/C(=N\Nc1cc(N2CCOCC2)nc(C)n1)c1cccc([N+](=O)[O-])c1
0.11 | 0.77 | COCc1c(C#N)c(NCCc2ccc(F)cc2)nc(C)c1[N+](=O)[O-]
0.94 | -0.44 | C=CCNC(=O)C1(S(=O)(=O)c2ccccc2)CC=CC1
0.14 | 2.49 | Cc1ccc2nc3c(c(Nc4cccc(O)c4)c2c1)CCC3
0.08 | 0.42 | CCOc1ccc(C(C)C)cc1S(=O)(=O)Nc1ccc(Cl)cn1
0.55 | 0.85 | COc1ccc(S(=O)(=O)N(C)CC(=O)Nc2ccccc2OC)cc1C
2.54 | 1.33 | COc1ccccc1NC(=O)CSc1nnc(-c2ccoc2C)n1C
1.66 | -0.73 | COCc1cc(=O)[nH]c(Nc2nc3ccccc3o2)n1
0.4 | -1.3 | CCC(=O)N1CCN(c2nc3ccccc3s2)CC1
0.65 | 0.86 | COc1ccc(Br)cc1/C=C/c1ccc2cccc(O)c2n1
0.25 | 0.61 | O=C(Nc1nc(-c2ccncc2)cs1)c1ccc(F)cc1
0.13 | 0.05 | CCN(CC)C(=O)C1CCN(S(=O)(=O)c2ccc3oc4ccccc4c3c2)CC1
0.62 | -1.06 | Cc1nc2ccccc2c(=O)n1NC(=O)COc1ccccc1
0.71 | -0.25 | CCOC(=O)C1CCCN(C(=O)Cc2c(C(=O)O)[nH]c3ccccc23)C1 (configuration not stated)
0.51 | -0.86 | CCN(CC)C(=O)CSc1nc2ncccc2[nH]1
0.29 | 0 | CC(C)C(=O)Nc1ccc2c(c1)nc(CCN1CCN(c3ccccc3)CC1)n2C
0.59 | -0.48 | CC(=O)c1ccccc1OCCCOc1cccc2cccnc12
0.21 | 1.35 | COc1ccc(-c2[nH]ncc2/C=N\NC(=O)c2ccc(C(C)(C)C)cc2)cc1OC
0.77 | -0.1 | Cn1ncc(Cl)c1C(=O)NC1C2CC3CC(C2)CC1C3 (configuration not stated)
0.39 | 0.74 | CCCNC(=O)Cn1c(=O)oc2cc(S(=O)(=O)N3CC(C)CC(C)C3)ccc21 (configuration not stated)
1.2 | -0.05 | c1cncc(CNc2ncn[nH]2)c1
0.07 | 1.47 | CCc1cccc(NS(=O)(=O)c2ccc(-n3cccn3)cc2)c1
1.03 | 1.75 | COc1cc(S(=O)(=O)n2ccc(C)n2)ccc1Cl
2.7 | -0.19 | Cc1cccc(C(=O)NNC(=O)CSc2nnc(C3CC3)n2C)c1

More entries.
KCNQ2 pot | KCNQ2 pot baseline | SMILES
0.29 | -0.63 | O=C1c2cccc([N+](=O)[O-])c2C(=O)N1C1CCCCC1
0.29 | 0.74 | Cc1ccc(C(=O)Nc2nnc(NC(=S)Nc3ccccc3)s2)cc1
0.27 | -0.26 | CC(CN1CCCC1)OC(=O)c1ccc(F)cc1 (configuration not stated)
0.68 | -3.87 | O=C(CN1CCN(S(=O)(=O)c2ccc(Br)cc2)CC1)N/N=C/c1ccco1
1.04 | -0.93 | Cc1ccccc1NC(=S)Nc1ccccc1
0.76 | -0.01 | CCC(c1nnc(SCC(=O)Nc2ccc(NC(C)=O)cc2)n1Cc1ccccc1)N(C)C (configuration not stated)
0.09 | -0.28 | Cc1ccc(NC(=O)Nc2ccc3c(c2)N(C)C(=O)CS3)cc1C
0.6 | -0.33 | COc1ccc(/C=C(\C#N)c2nc3ccc(C)cc3[nH]2)cc1Oc1ccc(C(F)(F)F)cc1[N+](=O)[O-]
0.56 | -0.87 | CCOC(=O)c1c(C)nc(C)c(C(=O)OCC)c1-c1ccc(OC)cc1
0.36 | 1.04 | O=C(NNC(=O)C1CCCCC1)c1ccc(Br)cc1
0.09 | 0.17 | CC(C)(C)c1cc(NCCCn2ccnc2)n2ncc(-c3ccc(Cl)cc3)c2n1
0.99 | -1.1 | O=C(NC(=S)Nc1ncc(Br)cc1Br)c1ccccc1
0.01 | 1.6 | CSc1nsc(SC)c1C(=O)Nc1ccc(Cl)cc1
1.11 | -0.47 | Cc1nc(C)c(C(=O)N(c2ccc(F)cc2)C(C(=O)NCC2CCCO2)c2ccccc2)s1 (configuration not stated)
0.36 | 0.62 | COc1ccc(NC2=C(Cl)C(=O)N(c3ccccc3)C2=O)c(OC)c1
1.27 | -1.91 | O=[N+]([O-])c1cccc(/C=N/n2c(-c3cccnc3)n[nH]c2=S)c1
2.07 | -0.31 | CCC(=O)N1CCc2cc(S(=O)(=O)CCC(=O)N(C)c3ccc(OC)cc3)ccc21
0.11 | 0.45 | O=C(Nc1nccs1)c1cc2cc(Cl)ccc2oc1=O
1.06 | -1.54 | O=C(NCCN1C(=O)S/C(=C\c2cccnc2)C1=O)c1cc(S(=O)(=O)N2CCOCC2)ccc1F
0.54 | 2.08 | O=C(NCCCCNC(=O)c1cccnc1Cl)c1cccnc1Cl
0.09 | 0.1 | O=C(O)Cn1cc(C(=O)C2CC2)c2ccccc21
1.1 | 2.08 | C#CCNC(=O)C1=C[C@H](c2ccc(Br)cc2)[C@@H](CCCO)[C@H](OCC)O1
0.84 | 0.05 | O=[N+]([O-])c1cccc(S(=O)(=O)N/N=C\c2ccc3c(c2)OCO3)c1
0.48 | -1.35 | Cc1nc(/C=C\C(=O)O)c2cc(C)oc2n1
0.09 | -0.25 | O=S(=O)(/C=C/c1ccccc1)N1CCN(c2nc(-c3cccnc3)nc3ccccc23)CC1
2.08 | -0.76 | COc1ccc(F)cc1C(=O)C1CCCN(C(=O)C2=C(C)OCCO2)C1 (configuration not stated)
0.78 | -1.05 | CCOC(=O)CCc1c(C)c2ccc(OCc3cc([N+](=O)[O-])ccc3OC)c(C)c2oc1=O
2.1 | -1.26 | Cc1ccc(CC(=O)Nc2ccc(Cl)cn2)cc1
0.03 | -0.07 | Cn1ccc(C(=O)Nc2sc3c(c2C#N)CCC3)n1
1.12 | 0.09 | Cc1ccc(S(=O)(=O)/N=C(/c2ccccc2)N(C)c2ccc(O)cc2)cc1

A portion of the results above, for reference:
KCNQ2 pot | KCNQ2 pot baseline | SMILES
0.29 | -0.63 | O=C1c2cccc([N+](=O)[O-])c2C(=O)N1C1CCCCC1
0.29 | 0.74 | Cc1ccc(C(=O)Nc2nnc(NC(=S)Nc3ccccc3)s2)cc1

An excerpt of these results, as tab-separated lines:
canonical_smiles	KCNQ2 pot	KCNQ2 pot baseline
CC(C)(C)c1cc(NCCCn2ccnc2)n2ncc(-c3ccc(Cl)cc3)c2n1	0.09	0.17
O=C(NC(=S)Nc1ncc(Br)cc1Br)c1ccccc1	0.99	-1.1
CSc1nsc(SC)c1C(=O)Nc1ccc(Cl)cc1	0.01	1.6
Cc1nc(C)c(C(=O)N(c2ccc(F)cc2)C(C(=O)NCC2CCCO2)c2ccccc2)s1 (configuration not stated)	1.11	-0.47
COc1ccc(NC2=C(Cl)C(=O)N(c3ccccc3)C2=O)c(OC)c1	0.36	0.62

(cont.)
KCNQ2 pot | KCNQ2 pot baseline | SMILES
1.54 | 1.13 | S=C(NC1CCCC1)NC1CCCC1
0.11 | -0.75 | Cc1[nH]cc(Br)c(=O)c1Oc1ncc(C(F)(F)F)cc1Cl
2.02 | -0.46 | COc1cc2ncnc(NCc3ccc(C)o3)c2cc1OC
1.01 | 0.58 | Cc1ccc(N(CC(=O)NCc2ccccc2)C(=O)CCC(=O)Nc2nccs2)cc1
1.89 | 0.96 | COc1ccc(NC(=S)Nc2ccccc2)c(OC)c1
0.71 | 1.35 | CC(=O)c1ccc(C(=O)NC2CCCN(Cc3ccc(Cl)cc3)C2)s1 (configuration not stated)
0.05 | -0.15 | COc1cc(SC)ccc1C(=O)Nc1cc(C)ccn1
0.05 | -0.29 | CC(NC(=O)C1CCCCC1)C(c1cccs1)N1CCOCC1 (configuration not stated)
0.24 | 0.73 | COc1cc(/C=N/N2CCN(Cc3ccc(Cl)cc3)CC2)ccc1OC(C)=O
0.8 | 0.69 | O=C(NCCSc1ccc(Cl)cc1)c1ccco1
0.03 | 0.37 | COc1ccccc1N(C)S(=O)(=O)c1ccc(C(=O)N2CCC(C(N)=O)CC2)cc1
0.32 | -0.26 | Cc1ccc(S(=O)(=O)/N=C(/c2ccccc2)N2CCOCC2)c(C)c1
0.43 | -0.03 | CCC1=NC(c2ccc(Br)cc2)N(O)C1(C)C (configuration not stated)
0.93 | 0.05 | CN(C)S(=O)(=O)c1ccc(C(=O)NCCC(=O)N2CCCC2)cc1
2.17 | -1.07 | Cc1c(Cl)cccc1NC(=O)Nc1ccccc1C(N)=O
1.64 | -0.02 | Cc1nc2c3ccccc3nc(NNC(=O)CCC(=O)N3CCN(c4ccc(F)cc4)CC3)n2n1
0.72 | 1.12 | CCN(CC(=O)N1CCCC1)S(=O)(=O)c1ccc2ccccc2c1
2 | -0.11 | Nc1nnc(SCCCC(=O)c2ccc(Br)cc2)s1
0.79 | -0.67 | CCn1cc(C(=O)O)c(=O)c2cnc(N3CCN(C(=S)NC(=O)c4ccc(OC)cc4)CC3)nc21
1.36 | 0.07 | CCOc1ccc2nc(Nc3nc(CSc4nnnn4-c4ccccc4)cc(=O)[nH]3)nc(C)c2c1
0.12 | -0.98 | Cc1cc(C(=O)N2CCCC(CO)(Cc3ccc(F)cc3)C2)c(C)o1 (configuration not stated)
0.53 | 0.45 | Cc1cc2ccccc2n1CCNC(=O)C(C)C
0.32 | 0.2 | Cc1cc(C(=O)NCCC2=CCCCC2)c(C)o1
2.63 | 0.67 | CCOC(=O)c1cc(C(=O)OCC)c2cccc(C)n2c1=O
0.22 | -0.14 | CCc1nnc(NC(=S)Nc2ccccc2)s1
0.34 | -0.7 | C=CCNC(=O)C1CC1(c1cccc(C)c1)c1cccc(C)c1 (configuration not stated)
1.99 | -0.33 | Nc1c(C(=O)N2CCOCC2)sc(=S)n1-c1ccccc1
0.91 | -0.15 | Cc1cc(C)c(C)c(OCC(=O)O/N=C(\N)c2ccncc2)c1
1.52 | 0.49 | Cc1cc(NC(=O)/C=C/C(=O)N(CC(=O)NC2CCCC2)c2ccc(F)cc2)no1
0.21 | 0.99 | Cc1ccc(C)c(N(CC(=O)NCC2CCCO2)C(=O)CCC(=O)Nc2nccs2)c1 (configuration not stated)

Later entries:
KCNQ2 pot | KCNQ2 pot baseline | SMILES
0.95 | -2.33 | Cc1ccc(OCC(O)CN2CCN(Cc3ccc4c(c3)OCO4)CC2)c(C)c1 (configuration not stated)
0.1 | -0.71 | COc1cc(NC(=O)C2CCCCC2)c2ncccc2c1
0.14 | -0.17 | Cc1cc(C)c(C(=O)Nc2ccccc2)c(CC(C)(C)C(=O)O)c1
1.71 | 1.08 | COc1ccc(N2CCN(c3nc4ccccn4c(=O)c3/C=C(\C#N)S(=O)(=O)c3ccccc3)CC2)cc1
0.07 | -3.12 | O=C(Nc1ccc(S(=O)(=O)Nc2ncccn2)cc1)c1cnc(Cl)c(Cl)c1
0.07 | 0.05 | COc1ccccc1C(=O)COC(=O)CCCN=C1NS(=O)(=O)c2ccccc21
0.11 | 0.41 | CC1=NN(c2ccccc2)C(=O)/C1=C\c1c(C)[nH]n(-c2ccccc2)c1=O
0.59 | 0.53 | CNc1nc(Oc2ccc(C(=O)OC)cc2)nc(SC)n1
2.05 | 0.01 | Cc1ccc(CNC(=O)C2CCN(c3nc(C)cc(C)n3)CC2)cc1
0.03 | -1.48 | COc1ccc(CCNC(=O)CS(=O)Cc2nc(-c3ccc(C)cc3)oc2C)cc1OC (configuration not stated)
1.14 | 1.64 | C/C(CC(=O)Nc1cccc2c1CCCC2)=N\NC(=O)Cc1ccccc1
1.5 | 0.92 | CC(=O)Nc1ccc(NC(=O)COC(=O)[C@@H](NC(=O)c2ccc(F)cc2)C(C)C)cc1
1.09 | -2.16 | Cc1cc(C)c(S(=O)(=O)N2CCCCC2CCNC(=O)C(=O)NCc2ccccn2)c(C)c1 (configuration not stated)
0.24 | 0.64 | COc1ccc(S(=O)(=O)N2CCC(C(=O)Nc3ccc(F)cc3)CC2)c2cccnc12
0.1 | -0.05 | COc1ccc(Cc2c(O)nc(SCC(=O)N3CCOCC3)[nH]c2=O)cc1
0.29 | -0.61 | NC(=O)COc1ccc2cc(-c3ccc(F)cc3)c(=O)oc2c1
1.28 | 0.3 | CCOC(=O)c1ccccc1NC(=S)N1CCC(C(N)=O)CC1
0.7 | 1.97 | COc1ccc(-c2nc(SCC(=O)N(CC(C)C)c3c(N)n(Cc4ccccc4)c(=O)[nH]c3=O)n[nH]2)cc1
0.76 | -1.73 | CCn1ccc(C(=O)Nc2c(C)nn(Cc3c(F)c(F)c(F)c(F)c3F)c2C)n1
1.71 | -0.77 | O=C(NC(C1CC1)C1CC1)C1CCC(=O)N(CCCN2CCCC2=O)C1 (configuration not stated)
0.59 | 0.94 | CCOC(=O)N1CCN(C(=O)COC(=O)Cc2ccc(OC)cc2)CC1
1.54 | -0.74 | O=C(N1CCOCC1)C1(S(=O)(=O)c2ccccc2)CC=CC1
0.07 | 0.33 | CC(=O)N1CCN(C(=S)c2ccc(N(C)C)cc2)CC1
0.04 | -1.92 | Cc1ccc(-c2csc3nnc(SCC(=O)Nc4nsc(-c5ccccc5)n4)n23)cc1
0.93 | 0.88 | Cc1ccc2c(cnn2C(=O)CCC(=O)NC2CCCCC2)c1
0.95 | 0.06 | O=C(O)CC1(CC(=O)Nc2cc(C(F)(F)F)cc(C(F)(F)F)c2)CCCCC1
1.39 | -1.78 | Cc1cc(C)nc(NC(=O)CN2C(=O)c3ccccc3C2=O)n1
2.64 | -0.02 | CN(C)c1ccc(N=C/C=C2/N(C)c3ccccc3C2(C)C)cc1

Compound activity: PubChem BioAssay, Johns Hopkins Ion Channel Center

A portion of the library; the hit share may differ from the screen's.
